# Cruzain inh Det: qHTS Assay for Promiscuous and Specific Inhibitors of Cruzain (with detergent); Cruzipain (Trypanosoma cruzi), P25779; purified cruzain, Z-FR-AMC fluorescence, 0.01% Triton; Potency, µM, for inactives: max response, negative = inhibition, actives largely listed as inhibitors; 200,000 compounds, 0.43% hits; AID 1478, 2009;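 further: plate controls were neutral wells for no effect and buffer without enzyme for full effect; nearly all actives have a fitted effect of over 40% in size; top concentration of the series not given in the record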
# Target sequence (P25779 123-467 limits assumed): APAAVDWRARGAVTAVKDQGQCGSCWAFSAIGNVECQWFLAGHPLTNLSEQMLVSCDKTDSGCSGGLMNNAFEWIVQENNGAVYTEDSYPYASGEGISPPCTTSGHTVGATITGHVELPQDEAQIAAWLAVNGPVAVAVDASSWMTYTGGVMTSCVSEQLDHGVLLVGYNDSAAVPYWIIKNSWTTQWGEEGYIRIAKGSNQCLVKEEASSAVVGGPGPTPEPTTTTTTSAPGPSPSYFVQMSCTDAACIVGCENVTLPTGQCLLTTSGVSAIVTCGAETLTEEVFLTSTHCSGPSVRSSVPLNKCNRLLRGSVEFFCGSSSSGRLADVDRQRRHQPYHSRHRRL
#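 Steps: dispense cruzain (1.5 nM final) in acetate buffer pH 5.5 with DTT and 0.01% Triton X-100; pin-transfer compounds; incubate 15 min RT; add Z-FR-AMC (2 uM final); read fluorescence every 30 s, using the 60 s intensity change.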
# MARV entry inh: qHTS for inhibitors of binding or entry into cells for Marburg Virus; 300,000 compounds, 1.8% hits; AID 540276, 2011; Marburg virus pseudotyped entry inhibition, cell reporter; control for the full effect not named in the record; about a third of the inactives were read at about 46 µM; Potency, µM (top dose mostly 37.8 µM), for the others: at the highest dose activity change, negative = inhibition, actives largely listed as inhibitors; active = well fitted inhibition curve with a large enough effect; inconclusive = small, poorly fitted or top-dose-only effect, or effect the other way; inactive = flat fitted curve, though single readings scatter; tested in HEK293 cells; about a fifth of its hits are not listed in these tables; further: on the % scale 0 is the no-effect control and ±100 the full control effect; luciferase read-out
# NS1 inh: qHTS Assay for Inhibitors of Influenza NS1 Protein Function. S. cerevisiae slowed by influenza A NS1, growth recovery by OD600. Potency, µM (series often up to 46.1 µM), for the others: top-dose activity, positive = more growth. 270,000 compounds, 0.4% hits. AID 2326, 2010; active means well fitted rising curve with a large enough effect; inconclusive means small, poorly fitted or top-dose-only effect; inactive means no such curve, though single readings can be large or run the other way; further: nearly all actives have a fitted effect of over 50% in size
#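 S. cerevisiae expressing influenza A NS1, grown in glucose, washed, then diluted 1:100 into pH 6.0 -URA galactose medium with 23 nl compound. Growth recovery read as OD600; NS1-free strain serves as control.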
# RE007 growth inh: qHTS Assay for Inhibitors of the HIV-1 protein Vpr. S. pombe RE007 Vpr strain, BacTiter-Glo ATP luminescence, 24 h; control for the full effect not named in the record. Potency, µM (series often up to 92.2 µM), for inactives: at the top dose activity change, negative = less growth. 360,000 compounds, 0.21% hits; active = well fitted falling curve with a large enough effect; inconclusive = small, poorly fitted or top-dose-only effect; inactive = no such curve, though single readings can be large or run the other way;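 further: on the % scale 0 is the no-effect control and ±100 the full control effect; nearly all actives have a fitted effect of over 50% in size; the assay follows cell death caused by Vpr and the record does not say whether a fall means rescue or toxicity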
#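 Fission yeast RE007 carrying one integrated HIV-1 vpr copy, seeded at OD 0.01 in PMG+AL medium with 23 nL pinned compound. Grown 24 h at 30 degrees; viability read by BacTiter-Glo luminescence after 5 min.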
# LASV entry inh: qHTS for Inhibitors of binding or entry into cells for Lassa Virus; Lassa virus pseudotype entry inhibition, cell reporter; control for the full effect not named in the record; Potency, µM (doses to about 37.9 µM), for inactives: top-dose activity change, negative = inhibition, actives largely listed as inhibitors; 300,000 compounds, 1.2% hits; active means well fitted inhibition curve with a large enough effect; inconclusive means small, poorly fitted or top-dose-only effect, or effect the other way; inactive means flat fitted curve, though single readings scatter; tested in HEK293 cells; further: on the % scale 0 is the no-effect control and ±100 the full control effect; nearly all actives have a fitted effect of over 50% in size; luciferase read-out
# SARS PLpro yeast: qHTS of Yeast-based Assay for SARS-CoV PLP | S. cerevisiae expressing SARS-CoV PLpro, growth rescue; control for the full effect not named in the record | Potency, µM (titrated, usually from 32.9 µM), for inactives: at the highest dose activity, positive = growth rescue | 330,000 compounds, 0.19% hits; active means well fitted rising curve with a large enough effect; inconclusive means small, poorly fitted or top-dose-only effect; inactive means no such curve, though single readings can be large or run the other way; further: 0% is about no effect; nearly all actives have a fitted effect of over 55% in size; growth read by luminescence after 48 h
# Cruzain inh noDet: qHTS Assay for Promiscuous and Specific Inhibitors of Cruzain (without detergent); Cruzipain (Trypanosoma cruzi), P25779; purified cruzain, Z-FR-AMC fluorescence, no detergent; Potency, µM, for the others: max response, negative = inhibition, actives largely listed as inhibitors; 200,000 compounds, 2.3% hits;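 further: plate controls were enzyme without inhibitor for no effect and buffer without enzyme for full effect; nearly all actives have a fitted effect of over 40% in size; top concentration of the series not given in the record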
#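 Detergent-free condition (0.00005% Triton X-100) in acetate buffer pH 5.5 with DTT. 1.5 nM enzyme and compound were pre-mixed 15 min, then 2 uM Z-FR-AMC substrate added; reaction progress from fluorescence change between first and third reads (60 s).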
# 2A StopGo: High Throughput Screening for Foot and Mouth Disease Virus Antivirals; human cells with a luciferase reporter of 2A StopGo recoding; control for the full effect not named in the record; 410,000 compounds, 1.2% hits; AID 1159524, 2015; Potency, µM (doses to about 57.9 µM), inactives show top-dose signal change, negative = less light; active = well fitted falling curve with a large enough effect; inconclusive = small, poorly fitted or top-dose-only effect; inactive = no such curve, though single readings can be large or run the other way; tested in HEK293T cells; further: on the % scale 0 is the no-effect control and ±100 the full control effect; nearly all actives have a fitted effect of over 45% in size; luciferase light after 4 h
# * marks the source's active call; other numbers are inactive results; ? = inconclusive; . = no result given; & = joins results of further samples; [ ] = dose if it differs, or a comment. Unless noted, the call rests on the fitted dose curve; in most records, active means well fitted curve in the direction sought with a large enough effect; inconclusive means small, poorly fitted or top-dose-only effect, or another doubt; inactive means no such curve, though single readings can be large; an effect the other way counts as inactive or inconclusive. Potency means the concentration at half of the fitted maximal effect. Compounds were not picked by outcome (roughly 4.7% active in at least one column).
SMILES,Cruzain inh Det,MARV entry inh,NS1 inh,RE007 growth inh,LASV entry inh,SARS PLpro yeast,Cruzain inh noDet,2A StopGo
CCCN(CCC)S(=O)(=O)c1ccc(C(=O)Nc2nnc(-c3cccc(OC)c3)o2)cc1,-0.4%,?,-12%,-5%,?,?,?,-30%
COc1ccc(Br)cc1CNC(=O)Cc1cccs1,.,?,-5%,23%,5%,0%,.,54%[activator]
O=[N+]([O-])c1ccc(/C=[N+](\[O-])[C@@H]2CCCC[C@@H]2/[N+]([O-])=C/c2ccc([N+](=O)[O-])o2)o1,.,?,-87%,-17%,?,-8%,.,32µM*
Cc1c2cnn(CC(=O)N3CCC4(CC3)OCCO4)c(=O)c2c(C)n1Cc1ccccc1,0.3%,-6%,0%,5%,-21%,0%,3%,-3%
Cc1ccc(-n2nc(C)c3c(C)cc(=O)n(CC(=O)NCc4ccc(OC(C)C)cc4)c32)cc1,11%,.,.,.,-28%[46.1 µM],.,-2%,-5%
Cc1ccc(CCNC(=O)c2cc(S(=O)(=O)N3CCCCC3)c[nH]2)cc1,.,.,0%,2%,.,0%,.,-21%
Cc1snc(SCC(=O)N/N=C(\N)COc2cccc(C(F)(F)F)c2)c1C#N,-17%,1%,7%,0%,-9%,-1%,?,-5%
Cc1ccc(N2C(=O)SC(N(CC(=O)O)c3ccc(C)cc3)C2=O)cc1 (stereo unspecified),.,.,0%,1%,.,1%,.,-5%
O=C(Nc1ccc(Cl)c(S(=O)(=O)N2CCOCC2)c1)c1ccc2c(c1)OCO2,.,10µM*,.,2%,?,-1%,.,32µM*
CCc1noc(C)c1C(=O)NNC(=O)COc1ccc(Br)cc1,.,15%,-4%,5%,-1%,-6%,.,-13%
CCOC(=O)N/N=C(\CCC(=O)O)c1cccs1,.,.,2%,-4%,.,1%,.,-13%
O=[N+]([O-])c1cc(/C=N/N2CCN(c3ccccc3)CC2)ccc1Cl,-7.2%,8%,8%,6%,0%,7%,-6%,6%
Cc1ccc(C)c(NC(=O)C2CCCN2S(=O)(=O)c2ccc3c(c2)n(C)c(=O)c(=O)n3C)c1 (stereo unspecified),-3.4%&-2.9%,?,16%,15%,0%[46.1 µM],9%,-8%&5%,-11%&20%
COc1cc(C(C)=O)ccc1OCCCN1CCC(Cc2ccccc2)CC1,.,?,-15%,-8%,-7%[46.1 µM],-10%,.,-12%
Cc1cc(C)nc(NC(=O)C(C)C)n1,6.4%,17%,5%,-1%,-4%,2%,4%,-19%
COc1ccc2ccccc2c1/C=N\n1c(C)cc(C)c(C(N)=O)c1=O,-2.4%,-21%,-37%,4%,-26%,-5%,3%,.
COC(=O)c1c(C)nc2ccccc2c1-c1ccccc1,-3.4%,6%,-17%,-1%,14%,1%,1%,0%
Cc1nn(Cc2ccc([N+](=O)[O-])cc2)c(=O)n1N(C)c1ncc(C(F)(F)F)cc1Cl,-1.7%,-4%,-1%,0%,-19%,2%,12%,?
CCN(CC)C(=S)Sc1c(-c2ccccc2)c2cc(Cl)ccc2[nH]c1=O,-5.5%,-26%,-4%,-24%,-27%,-1%,-25%,?
O=C(COC(=O)c1cccs1)Nc1nc(-c2ccccc2)cs1,-0.3%,22%,5%,3%,?,21%,10µM*,31%[activator]
Cc1ccccc1-c1nnn(CC(=O)Nc2sc3c(c2C#N)CCC(C(C)(C)C)C3)n1 (stereo unspecified),0.7%,22%[46.1 µM],.,.,-3%[46.1 µM],.,-3%,-17%
Cc1ccsc1C1NC(=O)c2c(sc3c2CCCC3)N1 (stereo unspecified),-15%,?,-7%,?,4%,-19%,-26%,10%
CCN(CC)CC#CC(OC)(c1ccccc1)c1ccccc1,.,?,-2%,-11%,?,-1%,.,?
CC(=O)c1cccc(NC(=O)CSc2nc(C3CC3)nc3ccccc23)c1,.,?,-13%,22%,?,0%,.,?
Cn1c(C(=O)O)ccc1S(=O)(=O)N1CCCCCC1,.,0%[14.2 µM],-1%,3%,-22%,1%,.,-13%
CC1Cc2cc(S(=O)(=O)N3CCCCC3C)ccc2N1C(=O)C1CCC1 (stereo unspecified),.,.,-11%,3%,.,-3%,.,-21%
S=C(Nc1ccccc1)N1CCN(c2ccccn2)CC1,.,.,-7%,-7%,.,0%,.,-4%
COc1cc(OC)cc(C(=O)NNC(=O)c2cc3c(s2)CCCC3)c1,.,.,1%,5%,.,0%,.,2%
Cc1cc2cc(CNC(=O)Nc3ccc(Cl)c(Cl)c3)ccc2n1C,.,.,23%,-2%,.,5%,.,-23%
Cc1ccc(CNC(=O)CCc2nnc3ccc(N4CCC5(CC4)OCCO5)nn23)cc1,.,.,-3%,0%,.,6%,.,-14%

# One compound at a time, as listed above. Values in the order: Cruzain inh Det | MARV entry inh | NS1 inh | RE007 growth inh | LASV entry inh | SARS PLpro yeast | Cruzain inh noDet | 2A StopGo
# Shown for `CC(=O)c1cccc(NC(=O)CSc2nc(C3CC3)nc3ccccc23)c1` : . | ? | -13% | 22% | ? | 0% | . | ?
# Shown for `Cc1ccccc1-c1nnn(CC(=O)Nc2sc3c(c2C#N)CCC(C(C)(C)C)C3)n1` (stereo unspecified) : 0.7% | 22%[46.1 µM] | . | . | -3%[46.1 µM] | . | -3% | -17%

# The list goes on:
SMILES,Cruzain inh Det,MARV entry inh,NS1 inh,RE007 growth inh,LASV entry inh,SARS PLpro yeast,Cruzain inh noDet,2A StopGo
Cc1c(N/N=C(\C#N)C(=O)c2ccccc2)c(=O)n(-c2ccccc2)n1C,0.3%,11µM*,8%,-8%,?,?,0%,-17%
OCc1c(Cl)nc2ccccn12,.,.,-3%,0%,.,2%,.,7%
COc1ccc(C2CC(c3ccccc3)=NN2C(=O)COC(=O)c2ccc(S(C)(=O)=O)cc2)cc1 (stereo unspecified),.,1%,.,2%,-11%,4%,.,-8%
O=C(COC(=O)c1cncc(Br)c1)Nc1ccc(F)c(F)c1F,.,29%,.,20%,-6%[46.1 µM],-3%,.,-12%
COc1ccc(CC(=O)Oc2ccc(C#N)cc2)cc1,.,.,7%,9%,.,0%,.,-11%
COc1ccc(NC(=O)C(=O)NNC(=O)c2cccs2)c(OC)c1,-5.5%,5%,6%,-7%,10%,?,-7%,0%
c1ccc(CCNCc2ccco2)nc1,0.3%,2%,0%,-4%,3%,.,-3%,-2%
O=C1CC(c2ccc(Cl)cc2)CC(O)=C1C=NCCN1CCNCC1 (stereo unspecified),-1.3%,.,-5%,.,.,-2%,-14%,.
NNC(=O)CCn1nnc2ccccc21,.,5%,3%,-1%,13%,0%,.,2%
CCOc1ccc(NS(=O)(=O)c2ccc(-c3cnc(C4CC4)o3)cc2)cc1,.,.,-63%,2%,.,-7%,.,-2%
COCCN(C(=O)Cc1cccs1)C(C(=O)NC1CCCC1)c1ccc(OC)c(OC)c1 (stereo unspecified),.,.,2%,9%,.,0%,.,-15%
CCOC(=O)C(NC(C)=O)C(=O)Nc1ccc(OC)cc1 (stereo unspecified),.,1%[46.1 µM],3%,-2%,17%,1%,.,11%
COc1ccc(OCCNc2cc(N3CCCCC3)ccc2[N+](=O)[O-])cc1,-7.5%,?,0%,-3%,?,3%,?,-21%
C[C@@H]1C(=O)NC2=Nc3cccc(Cl)c3CN21,3.9%,19%&24%&24%,-15%,.,-12%,.,-3%,.
Cc1ccsc1/C=N/NC(=O)c1ccc(-n2cccc2)cc1,.,?,7%,-1%,7%,-3%,.,54%[activator]
Cc1ccc(NS(=O)(=O)c2ccc(C(=O)N3CC(C)CC(C)C3)cc2)cc1 (stereo unspecified),.,-11%,.,-15%,?,5%,.,-2%
Cc1noc(C)c1COc1ccc(C(=O)NNC(=O)c2ccccc2)cc1,.,?,.,-5%,?,9%,.,-13%
Cc1ccc(-c2nn(-c3ccccc3)cc2/C=C(\C#N)C(=O)NCc2ccccc2)cc1,-6.0%,15%,12%,9%,?,5%,?,-12%
O=C(NCCC1=CCCCC1)C1CCCN(c2nc3ccccc3o2)C1 (stereo unspecified),2.1%,-18%,-58%,5%,-16%,-11%,18%,-28%
Cc1nn(-c2ccccc2)c2sc(C(=O)N(Cc3ccco3)C(C)C(=O)NC(C)(C)C)cc12 (stereo unspecified),1.4%,-18%[46.1 µM],-38%,8%,1%,1%,?,-10%
CC(=O)Nc1ccc(C2NC(=O)CCC2[N+](=O)[O-])cc1 (stereo unspecified),.,.,5%,-4%,.,1%,.,6%
Cc1ccccc1NC(=O)CSc1nc(-c2ccccc2C)nc2cc(=O)[nH]n12,-16%,.,.,.,-2%[46.1 µM],.,6%,-12%
O=C(Nc1cccnc1Cl)c1cccs1,.,-2%[46.1 µM],-7%,-6%,11%[46.1 µM],1%,.,26%
O=c1[nH]c(C2CCN(S(=O)(=O)c3ccc4c(c3)OCCO4)CC2)nc2c1nnn2Cc1ccccc1,.,-25%[46.1 µM],14%,4%,-7%,11%,.,-21%
CC(CN1CCOCC1)OC(=O)c1ccccc1Cl (stereo unspecified),.,?,15%,3%,21%,7%,.,0%
CSc1ccccc1C(=O)NCc1ccccc1C,.,2%[46.1 µM],0%,10%,-5%[46.1 µM],1%,.,-1%
COc1ccc(CNC(=O)C(=O)NCC2OCCN2C(=O)c2ccc(OC)cc2)cc1 (stereo unspecified),.,?,18%,2%,0%,-2%,.,-7%
C[n+]1ccc(/C=C/c2c[nH]c3ccccc23)cc1,-7.8%,2%,10%,?,-1%,2%,-2%,-25%
O=C(COC(=O)c1c2c(nc3ccccc13)CCN(Cc1ccccc1)C2)Nc1c(F)cccc1F,-11%,?,24%,4%,?,0%,?,-15%
CC(Sc1ccccn1)C(=O)Nc1ccc2c(c1)OCCO2 (stereo unspecified),.,-2%,.,-14%,-3%,5%,.,25%
O=c1[nH]c(Cc2ccc(Cl)cc2)nc2ccccc12,.,?,4%,10%,-7%[46.1 µM],-1%,.,-9%
